# High-throughput results: PubChem BioAssay, Broad Institute
# PrP 5UTR inh: suppresses PrP 5' UTR mRNA reporter expression. cell-based PrP 5' UTR mRNA reporter, plate reader. inhibition, % (no concentration beside the values). 340,000 tested, 0.35% active. AID 488862;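 active means every replicate at 50% or more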;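 further: 0 = median of the neutral control wells; tested in H4 reporter cells; numbers are from one replicate; inactives centre near -14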
# BJeLR lethal: kills HRASV12-expressing BJeLR cells; BJeLR (HRASV12) viability, CellTiter-Glo ATP luminescence, 48 h; reference of the scale not given here; inhibition, % (no concentration beside the values); 300,000 tested, 0.17% active; AID 1554;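 active means replicate mean above 50%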;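 further: 50 nL library stock added to about 25 µL; numbers are from one replicate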
# * = called active by the depositor; · = not tested or not shown.
SMILES,PrP 5UTR inh,BJeLR lethal
COc1ccc(CCNC(=O)c2ccc3c(c2)NC(=O)C(CSCc2cc(C)ccc2C)N3)cc1OC (stereo unspecified),·,-2.8
COc1cccc2cc(-c3ccnc(=S)[nH]3)oc12,·,2.5
COc1ccc(Nc2sc(C(=O)Nc3cccc(Cl)c3)c(N)c2C(=O)Nc2ccccc2OC)cc1,·,7.1
CCOC(=O)c1ccc(NC(=O)c2nc[nH]c2C(=O)N2CCN(C(=O)OC(C)(C)C)CC2)cc1,·,-1.0
Nc1nc2ccc(Cl)cc2c2nc(-c3ccco3)nn12,·,-11.7
O=C(/C=C/c1ccc2c(c1)OCO2)Nc1nc(-c2ccc(F)cc2F)cs1,·,6.5
Cn1nnnc1Sc1ncnc2scc(-c3cccs3)c12,-11.9,·
COc1ccc(CNc2cccnc2)c(OC)c1OC,-9.8,·
C#CCOCCOCCOCCNc1nc(N2CCN(C(=O)CCCCCCCCCCNC(=O)[C@H](CCCCN)n3cc(C)nn3)CC2)nc(N2CCN(C(=O)CCCCCCCCCCNC(=O)[C@H](CO)n3cc(CCCSC)nn3)CC2)n1,-5.4,·
CC(=O)N/N=C\c1cccc(OC/C=C/c2ccccc2)c1,-68.5,·
CC(=O)CSc1nc(CCc2ccccc2)c(C#N)c(=O)[nH]1,-5.9,·
C/C(=N\NC(N)=S)c1cccnc1,-13.5,-0.2
CCOc1ccc(/C=N/NC(=S)NC2CC3CCC2C3)cc1 (stereo unspecified),-65.5,8.6
CSC(SC)=C(C#N)C(=O)c1ccccc1,-19.2,-1.2
Cc1cc([N+](=O)[O-])nn1CC(=O)NCc1ccc(Cl)cc1,-15.4,-4.4
OC1(c2ccc(Cl)cc2)CCN(Cc2cn[nH]c2-c2ccc(F)cc2)CC1,-10.5,4.0
CCCCCCN=C(C)c1ccccc1O,-3.6,-2.8
CCCc1nnc(NC(=O)C(=O)NCCN(C)C)s1,0.2,-0.4
Cc1n[nH]c(C)c1CCC(=O)N/N=C/c1c[nH]c2ccccc12,-14.4,-3.8
Cc1cc(C(=O)N/N=C/c2c(C)nn(-c3ccccc3)c2C)c(C)o1,-17.0,0.2
Cn1c(=O)[nH]c(=O)c2c1nc(Br)n2C/C=N/NC(=O)c1ccccc1,-8.0,-5.2
COc1ccc(N2C(=O)C3C(C2=O)C(C(=O)c2ccccc2)N2CCCC32)cc1 (stereo unspecified),-11.1,2.1
c1ccc(CSc2nnc(-c3ccco3)o2)cc1,-58.3,-9.4
COc1cc(/C=N/NC(=O)CSc2ccccn2)ccc1O,0.1,0.5
CC(=O)c1sccc1NC(=O)c1ccccc1C(=O)O,-7.6,10.8
Cn1c(=S)n(/N=C/c2cccs2)c2ccccc21,-7.8,-7.1
NC(=O)c1ccc(N=Cc2c(O)ccc3ccccc23)cc1,-11.2,-16.2
COc1cccc(-c2c(C(=O)N/N=C/c3ccco3)nnn2-c2nonc2N)c1,-13.5,2.1
CCS(=O)(=O)c1cc([N+](=O)[O-])c(Sc2ccccc2NC(C)=O)s1,-5.3,-4.7
CCN(CC)CCN1C(=O)C(O)=C(C(C)=O)C1c1ccccc1[N+](=O)[O-] (stereo unspecified),1.9,0.5
O=[N+]([O-])c1ccc(Cl)cc1CN1CCCCCC1,-92.9,-6.9
O=C1NC(c2ccccc2)C(C(=O)c2cccs2)C(O)(C(F)(F)F)N1 (stereo unspecified),-4.3,-4.3
COc1cccc(/C=N/c2nc3ccccc3[nH]2)c1O,-14.7,2.1
CCC(C)Nc1nc(N)c([N+](=O)[O-])c(Nc2ccccc2OC)n1 (stereo unspecified),2.1,7.6
CCN(CC)C(=O)c1cc([N+](=O)[O-])cc2c1-c1ccc([N+](=O)[O-])cc1C2=C(C#N)C#N,-23.3,7.5
N#C/C(C(N)=O)=c1/ccc2c(c1)N1C3=C(CCCC3)CC3CCCCC31N=2 (stereo unspecified),-3.1,7.7
O=C(/C(=N/O)n1cncn1)c1ccccc1Cl,-16.2,-1.0
C/C(=N\NC(=O)c1nnn(-c2nonc2N)c1CN(C)c1ccccc1)c1ccccc1O,-20.9,17.8
COc1ccc(-c2noc(C3CCCN(C(=O)c4ccccc4C)C3)n2)cc1 (stereo unspecified),7.0,13.3
CC(=O)Nc1ccc(Nc2nc(-c3sc(NC(C)=O)nc3C)cs2)cc1,-18.6,9.1
CCCc1c(C(=O)N/N=C(\C)c2ccc(O)cc2)nnn1-c1nonc1N,-18.1,-5.1
O=C1C(NS(=O)(=O)c2cccs2)=C(N2CCN(c3ccccc3)CC2)C(=O)c2ccccc21,-17.9,-1.6
Cc1ccc(C(=O)N/N=C\c2ccc(-c3ccc(Cl)c(Cl)c3)o2)cn1,-19.5,2.6
Cc1ccc2occ(/C=N/NC(=O)[C@@H](N)Cc3ccccc3)c(=O)c2c1,-7.8,3.0
COc1ccc(/C(C)=N/N=C(N)N)c(O)c1,-28.7,-5.6

# Of the compounds above, these contain an aryl methoxy group:
SMILES,PrP 5UTR inh,BJeLR lethal
COc1ccc(CCNC(=O)c2ccc3c(c2)NC(=O)C(CSCc2cc(C)ccc2C)N3)cc1OC (stereo unspecified),·,-2.8
COc1cccc2cc(-c3ccnc(=S)[nH]3)oc12,·,2.5
COc1ccc(Nc2sc(C(=O)Nc3cccc(Cl)c3)c(N)c2C(=O)Nc2ccccc2OC)cc1,·,7.1
COc1ccc(CNc2cccnc2)c(OC)c1OC,-9.8,·
COc1ccc(N2C(=O)C3C(C2=O)C(C(=O)c2ccccc2)N2CCCC32)cc1 (stereo unspecified),-11.1,2.1
COc1cc(/C=N/NC(=O)CSc2ccccn2)ccc1O,0.1,0.5
COc1cccc(-c2c(C(=O)N/N=C/c3ccco3)nnn2-c2nonc2N)c1,-13.5,2.1
COc1cccc(/C=N/c2nc3ccccc3[nH]2)c1O,-14.7,2.1
CCC(C)Nc1nc(N)c([N+](=O)[O-])c(Nc2ccccc2OC)n1 (stereo unspecified),2.1,7.6
COc1ccc(-c2noc(C3CCCN(C(=O)c4ccccc4C)C3)n2)cc1 (stereo unspecified),7.0,13.3
COc1ccc(/C(C)=N/N=C(N)N)c(O)c1,-28.7,-5.6

# Continuation.
SMILES,PrP 5UTR inh,BJeLR lethal
Cc1ccc(NC(=O)c2sc3nc(N4CCOCC4)c4c(c3c2N)CC(C)(C)OC4)cc1,-19.9,23.6
N/C(=N/OC(=O)c1ccccc1Cl)c1ncc([N+](=O)[O-])s1,-74.7,8.4
S=c1[nH]nc(-c2cccs2)n1/N=C/c1cn(-c2ccccc2)nc1-c1ccccc1,-10.7,-1.3
CCCC(=O)NC(c1ccc(Cl)cc1Cl)c1ccc2cccnc2c1O (stereo unspecified),36.9,21.0
CCCCCC#CCC#CCC#CCC#CCCCC(=O)O,-27.7,-7.9
COc1ccc(S(=O)(=O)N/N=C(/C)c2ccncc2)cc1,1.9,4.3
COc1cccc(/C=N/NC(=O)Cn2nc([N+](=O)[O-])cc2C)c1,-16.9,-8.0
COc1ccc(N2CCN(c3nc4ccccn4c(=O)c3/C=C(\C#N)S(=O)(=O)c3ccccc3)CC2)cc1,-26.6,-6.4
COC(=O)N/N=C(\C)c1ccccc1Br,-9.6,8.4
CC(C)(C)c1ccc(NNC(=O)C2CCC2)cc1,-14.7,-14.3
CCc1ncc(/C=C2\C(=O)Nc3ccccc32)[nH]1,-2.4,-12.3
CCOC(=O)c1cc(/C(C)=N/OC(=O)c2ccc(C(C)(C)C)cc2)on1,-8.1,-10.7
Cc1n[nH]c(C)c1CCC(=O)N/N=C/c1cccs1,-19.5,-4.2
Oc1ccccc1/C=N/NC(=S)NC1CC2CC1C1C=CCC21 (stereo unspecified),-67.2,-5.5
COc1ccccc1N1CCN(/N=C/C(Cl)=C/c2ccccc2)CC1,-80.5,-5.9
CCc1ccc(/C=N/NC(=O)c2ccccn2)cc1,10.7,-3.0
CN1CCc2c(sc3nc(NN)n(Cc4ccccc4)c(=O)c23)C1,-18.5,0.6
CCOC(=O)c1ccccc1NC(=O)CN(c1ccc(OCC)cc1)S(C)(=O)=O,-108.4,3.9
O=C(N/N=C/C(Br)=C/c1ccccc1)c1cccnc1,-23.4,10.4
Cc1ccc(SCC(=O)N/N=C/c2ccco2)cc1,-5.9,-5.4
COCCCNC(=S)N/N=C/c1ccc2c(c1)OCO2,-25.0,-3.8
CCOCCCN(C)C1CCN(C(=O)c2oc3ccccc3c2NC(=O)c2ccc(F)cc2)CC1,-19.9,7.6
Nc1nc(-c2cc(O)ccc2[N+](=O)[O-])cc(-c2ccccc2)c1[N+](=O)[O-],20.9,1.1
CN(C)/C=N/S(=O)(=O)c1ccc(Cl)c(Cl)c1,-14.6,-0.2
C/C(Cc1ccccc1)=N\NC(=O)CNC(=O)c1ccccc1Cl,-6.2,5.0
Cc1nnc(N2C(=O)C(O)=C(C(=O)c3ccco3)C2c2cccc3ccccc23)s1 (stereo unspecified),-12.2,-1.2
CC(C)(C)OC(=O)N1CCC(c2c(C(=O)NCC3CCN(C4CCCC4)C3)cnn2-c2ccccc2)CC1 (stereo unspecified),-18.1,5.2
COc1cccc(C(=O)N/N=C/c2ccc(OC3CSC3)cc2)c1,-14.5,2.1
C/C(=N/NC(=O)c1cc(-c2cccc([N+](=O)[O-])c2)n[nH]1)c1cccc(O)c1,-6.9,3.3
COc1ccc(C(=O)COc2ccc(C)cc2NC(C)=O)cc1,-47.6,17.2
Cn1c(SCC(=O)N/N=C/c2ccncc2)nc2ccccc21,-24.4,4.8
Clc1ccc(/C=N\Nc2ccccc2)cc1,-41.1,3.5
C[C@]12CC[C@@H]3c4ccc(O)cc4[C@@H](O)C[C@H]3[C@@H]1CC[C@@H]2O,-1.4,6.7
O=C(Nc1ccc(Oc2c(F)c(F)c(F)c(F)c2F)cc1)OC1CCN2Cc3ccccc3N=C12 (stereo unspecified),5.3,6.1
CC(/C=C/c1ccco1)=N/NC(=O)c1ccc(C)nc1,-17.5,-5.8
COc1ccc(/C(C)=N/NC(=O)Cc2ccc(Cl)cc2)cc1,4.1,-6.1
CC(C)Cc1nnc(NC(=O)CCC(=O)N2CCC3(CC2)OCCO3)s1,-7.3,5.0
Cc1cccn2c(=O)c3cc(C#N)c(=NC(=O)c4ccco4)n(Cc4ccco4)c3nc12,-22.2,-5.5
COC(=O)N/N=C/c1ccc(OC(=O)c2ccco2)c(OC)c1,-24.3,-13.0
O=C(CN1c2ccccc2Sc2ccccc21)N/N=C/c1ccc(Cl)cc1,-21.4,-2.4
Cc1ccsc1/C=C1/SC(=O)N(CC(=O)N2CCOCC2)C1=O,-27.3,0.6
CCCCN1Cc2c(nc3cc(-c4ccco4)[nH]n3c2=O)C1=O,-1.6,-8.3
COC(=O)C1=CN(Cc2ccc(OC)cc2)C=C(C(=O)OC)C1c1ccc(O)c(OC)c1,-6.5,10.8
O=S(=O)(/N=C(\[O-])C[n+]1ccccc1)c1ccc(Cl)cc1,-25.9,10.2
Cn1cc(C(=O)N/N=C/c2ccc3c(c2)OCO3)c2ccccc21,-31.1,31.6

# Filtered by structure: the compounds so far with a COOH group (2)
SMILES,PrP 5UTR inh,BJeLR lethal
CC(=O)c1sccc1NC(=O)c1ccccc1C(=O)O,-7.6,10.8
CCCCCC#CCC#CCC#CCC#CCCCC(=O)O,-27.7,-7.9

# The list goes on.
SMILES,PrP 5UTR inh,BJeLR lethal
COCCCn1c(O)c(/C=C2\N=C(C#N)C(=Nc3ccc(C)cc3)O2)sc1=S,-41.2,13.6
Cc1ccc[n+](-c2nc([O-])sc2/C=N/Nc2ccc([N+](=O)[O-])cc2)c1,-7.5,5.2
CC(C)(C)C(=O)Cn1c(=N)n(Cc2ccccc2)c2ccccc21,-2.8,7.2
CCC(=C/c1sc2ccc3ccccc3c2[n+]1C)/C=C1\Sc2ccc3ccccc3c2N1C,13.5,60.9*
COCCNC(=O)C(Cc1c[nH]c2ccccc12)NC(=O)OCc1ccccc1 (stereo unspecified),2.7,1.1

# Taken from the entries so far, 2 compounds:
SMILES,PrP 5UTR inh,BJeLR lethal
CCC(=C/c1sc2ccc3ccccc3c2[n+]1C)/C=C1\Sc2ccc3ccccc3c2N1C,13.5,60.9*
COCCNC(=O)C(Cc1c[nH]c2ccccc12)NC(=O)OCc1ccccc1 (stereo unspecified),2.7,1.1

# This is a subset. The share of hits here may be higher or lower than overall.
